AID504770: growth inhibition of E. coli YBA685, primary screen, V. cholerae RctB inhibitors; E. coli YBA685 rctB-dependent plasmid, OD600 growth, 3 h; active compounds read low; z-score (concentration not given with the values); 0.27% of 130,000 active; AID 504770, 2011;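 active = z-score under -2 on both plates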;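 also: wells of about 30 µL received 100 nL stock; score is relative to mean and SD of the test wells; the first replicate is given; strong numbers were not always called active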
Ba CapD inh: Bacillus anthracis CapD inhibitors, primary screen, biochemical, fluorescence intensity; AID 492967, 2010; z-score (test concentration not listed); 0.23% of 140,000 active; CapD gamma-glutamyltranspeptidase (Bacillus anthracis Ames Ancestor); purified CapD enzyme, fluorescence intensity read-out; active compounds read low; some hits fall short of the stated cut;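 active = z-score under -4 in either of two replicates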;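 also: stock transfer was 100 nL into about 40 µL; score is relative to mean and spread of the plate; one replicate is shown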
Active calls of the source: *; i = inactive; / = not tested or not shown.

SMILES	AID504770	Ba CapD inh
COc1ccccc1C1CCN(S(=O)(=O)c2ccc(-c3csc(C)n3)s2)CC1	-0.65	-0.495
Cc1cc(-n2c(=S)sc3c(=O)n(-c4ccccc4F)c(=S)[nH]c32)ccc1Cl	/	-1.52
CCOC(=O)c1c(-c2ccccc2)oc2c1cc(OC(=O)c1ccc(OC)cc1)c1ccccc12	/	-0.98
O=C(Nc1ccc(OC(F)(F)F)cc1)c1cccn(Cc2ccccc2)c1=O	/	-0.985
S=c1[nH]nc(SCc2cccs2)s1	0.15	/
CCSC(=Nc1ccccc1)Nc1ccccc1	-1.05	-0.355
O=C(Nc1ccc2oc(-c3cccnc3)nc2c1)c1cccnc1Cl	0.7	3.64
COc1cccc(OCc2nc3ccccc3c(=O)n2N)c1	0.05	0.075
CCOC(=O)N1CCC(NC(=O)c2ccc(CO)c(C(=O)NC3CCN(C(=O)OCC)CC3)c2)CC1	-0.95	-0.045
O=C(NC1CCCC1)c1c(F)c(F)c(F)c(F)c1F	1.5	0.005
CCn1c(=O)n(CC(=O)NCCc2ccc(OC)c(OC)c2)c(=O)c2ccccc21	/	0.68
CC1(C)Cc2nc3sc4c(NCCO)ncnc4c3cc2CO1	-0.05	/
CCCCN1CCCCC1C(=O)Nc1c(C)ccc(S(=O)(=O)N2CCCCC2)c1C (centres undefined)	/	-0.395
CNC(=O)c1cc2c(=O)n3ccccc3nc2n1C	1.95	/
CC(C(=O)N1CCCc2ccccc21)N1CC=C(c2ccccc2)CC1 (centres undefined)	0.65	/
O=C(O)CC1(CC(=O)Nc2ccccc2O)CCCC1	-0.2	-0.51
CCCN1CCC(N(C(=O)c2ccc(NC(=O)Cc3ccc(Cl)cc3)cc2)C2CC2)CC1	/	-0.32
CCOc1ncccc1C(=O)OCc1nc2ccccc2s1	-0.1	/
CCCc1ccc(-c2nc(-c3ccccc3)no2)cc1	1.45	-1.24
Cc1ccccc1C(=O)c1ccc2c(c1)n(C)c(=O)n2C	-1	-1.83
CCOc1cc(CNn2cnnc2)cc(Cl)c1OCC(=O)NC(C)(C)C	-0.25	-0.54
CCCN(C(=O)c1cccs1)C1CCN(C)CC1	/	0.095
N#CCSc1ccc2c(c1)OCCO2	1.25	/
CC1(C)OC(=O)C(=CNc2ccccc2O)C(=O)O1	-1.25	-3.72
COc1cc(C(=O)Nc2ccccc2-c2nc3ccccc3s2)cc(OC)c1OC	/	1.48
CN1C(CC(=O)c2ccccc2)CCCC1CC(O)c1ccccc1 (centres undefined)	-0.25	-0.23
CC(C(=O)N1CCN(Cc2ccccc2)CC1)N1CCN(S(=O)(=O)c2cccc(F)c2)CC1 (centres undefined)	-0.5	/
c1ccc2c(c1)NC(c1cccc3ccccc13)O2 (centres undefined)	/	1.28
Cc1cccc(-c2nnc(NC(=O)C(C)(C)C)s2)c1	-0.55	i
CCCNc1nc(Cl)nc(Cl)n1	0.55	/
Clc1cccc2nnc(-c3cccc(I)c3)n12	/	-0.045
O=S(=O)(c1ccccc1)c1nc(COc2ccc(Cl)cc2Cl)oc1N1CCOCC1	/	0.085
O=C(NC(=O)c1ccccc1)Nc1cc(N2CCCCC2)ncn1	1.35	/
COc1ccc(-c2cnn(-c3ccccc3)c2N)cc1OC	-0.55	1.33
O=C(NC1CCCC1)C(Cc1ccccc1)NS(=O)(=O)c1cccs1 (centres undefined)	-0.1	-0.365
NS(=O)(=O)c1ccc(F)cc1Cl	/	-1.46
CCOC(=O)c1c(CNc2ccccc2)n(-c2ccccc2)c2cc(Br)c(OC)cc12	/	0.015
Cn1c(SCc2ccccc2)nnc1-c1ccccc1	-0.75	/
O=C1N=c2ccc(Br)cc2=C1c1sc(=O)n(Cc2ccccc2)c1O	/	0.865
O=C(COCc1cc2cccc3c2n(c1=O)CCC3)NCc1ccc(Cl)cc1	/	4.3
CCOC(=O)C(CC)Oc1ccc2c(=O)c(-c3ccc(Cl)cc3)coc2c1 (centres undefined)	-1.85	0.38
COC(=O)C1CCN(C(=O)C(C)Oc2ccccc2)CC1 (centres undefined)	1.4	-0.145
O=C1N/C(=N\c2ccccn2)SC1Cc1ccccc1 (centres undefined)	0.1	/
COc1ccc(C(C)N(C)CCC(=O)O)cc1OC (centres undefined)	-0.7	-0.07
CCOC(=O)N1CCN(C(=O)CCN2C(=O)/C(=C/C=C/c3ccccc3)SC2=S)CC1	-0.4	-0.15
Cc1ccc(S(=O)(=O)N(C)Cc2nc(-c3ccc(Cl)cc3)no2)cc1	0.35	-0.685
O=C(O)CCCn1c2ccccc2c2cn[nH]c(=O)c21	0.3	4.34
COc1ccc(/C=N/NC(=O)c2ccccc2Cc2ccccc2)c(OC)c1C	/	-0.705
O=C(Nc1c2c(nn1-c1ccc([N+](=O)[O-])cc1)CS(=O)(=O)C2)C1(c2ccc(Cl)cc2)CCCC1	/	-1.23
COc1cc2c(cc1OC)C(C)N(C(=O)c1cc3c(Cl)nc4ccc(C)cc4c3s1)CC2 (centres undefined)	0.2	2.58
CCN(CC)C(=O)c1cn(C)c(=O)c2cc(OC)c(OC)cc12	0.25	-0.25
CC(C)Cn1c(SCC(=O)c2ccc(Cl)cc2)nc2ccccc2c1=O	-0.7	-0.38
COc1cccc(NC(=O)CSc2nc3ccccc3n2C(C)=O)c1	/	0.035
O=c1[nH]nc(SCCS(=O)(=O)c2ccc(F)cc2)n1-c1ccccc1	-0.35	0.425
CC(C)=NNC(=O)Cc1c[nH]c2cccc(OCC(O)CNC(C)(C)C)c12 (centres undefined)	-0.45	0.35
COC(=O)/C(=C\Nc1ccc(OC)cc1)NC(=O)c1ccc(Cl)cc1Cl	/	-0.745
CCCCn1c(C2CC(=O)N(Cc3ccccc3)C2)nc2ccccc21 (centres undefined)	-0.2	/
O=C(Nc1ccc2c(c1)C(c1ccccc1)=Nc1ccc(NC(=O)C34CC5CC(CC(C5)C3)C4)cc1C(c1ccccc1)=N2)C12CC3CC(CC(C3)C1)C2	/	-0.26
CC(C)[C@H](N)C(=O)OCCOCn1cnc2c(=O)[nH]c(N)nc21	0.25	/
CCOc1cccc2cc(C(=O)NC3CC(C)(C)NC(C)(C)C3)c(=O)oc12	-0.4	/
Going on with the list.
SMILES	AID504770	Ba CapD inh
O=C1CSc2nnc(-c3cccs3)n21	-0.6	0.695
CCCNC(=O)C1CCN(c2nc(C)cc(C)n2)CC1	/	0.52
COc1ccc(NC(=S)Nc2ccccc2)cc1	0.2	-0.33
O=C(Nc1nnc(C2CC2)s1)c1cc(Cl)sc1Cl	0.05	0.405
O=[N+]([O-])c1ccc(N2CCCNCC2)nc1	/	-1.6
O=C(CCN1C(=O)COc2ccccc21)NCCN1CCc2ccccc2C1	-1	0.28
O=C(c1oc(=O)c2ccccc2c1-c1ccccc1)N1CCN(C2CCCCC2)CC1	0.35	1.25
CC(=O)C1=C(C)NC(SCc2ccccc2C)=C(C#N)C1c1ccccc1[N+](=O)[O-] (centres undefined)	/	0.1
Cc1cccc(CSc2nnc(CCC(=O)O)c(=O)[nH]2)c1	-1.05	/
CC(C)OC(=O)[C@@H]1CCN[C@@H]1c1ccccc1	-0.1	/
CC1=C(C(=O)OC2CCCC2)C(c2ccccc2OCc2ccccc2)NC(=O)N1C (centres undefined)	/	0.88
COC(=O)c1ccc(NC(=O)CSc2nc3ccc(NC(=O)CSc4ccccn4)cc3s2)cc1	/	0.6
COC(=O)C(NC(=O)c1cccnc1Cl)C(C)C (centres undefined)	2.7	/
O=C(NCc1csc(-c2cccs2)n1)Nc1cccc(Cl)c1	0.2	40.5
Cc1ccc(-c2nn(CCC(=O)NC(C)C)c(=O)c3ccccc23)cc1	-0.15	0.405
CCOC(=O)CC1=C(C(=O)OCC)C(c2ccc(C)o2)C(C#N)=C(N)O1 (centres undefined)	-0.3	-0.475
COc1ccc(-c2csc(=Nc3ccccc3)n2CCc2ccccc2)cc1F	/	-0.275
C/C(=N\O)c1sc2ccc(Cl)cc2c1C	-0.35	-1.08
COc1ccccc1N1CCN(CCCCNS(=O)(=O)c2ccc(Cl)c(Cl)c2)CC1	0.25	1.19
CC(NC(=O)CCCn1c(=O)c2cccn2c2ccccc21)c1ccccc1 (centres undefined)	-0.3	0.885
O=C(O)c1noc2c1CCCC2	0.05	/
CC(NC1CC(C)N(C)CC1C)c1ccccc1 (centres undefined)	-0.15	/
Clc1nc(CN2CCCCC2)nc2sc3c(c12)CCC3	1.4	/
Cc1nn(-c2ccccc2)c2c1C1C(=C(N)S2)C(=O)Oc2ccccc21 (centres undefined)	0.1	0.75
Cc1ccc(Cn2c(=O)c3ccccc3n3c(SCC(=O)OC(C)(C)C)nnc23)cc1	-0.2	/
CCn1ncc(NC(=S)NCCc2ccccc2)c1C(N)=O	0.05	0.075
CCn1c(C(C)N2CCCCC2)nc2ccccc21 (centres undefined)	0	0.41
COCCCOc1nc(N2CCOCC2)nc(N2CCOCC2)n1	/	0.7
CCN(CC)S(=O)(=O)c1ccc2c(c1)n(C)c(=O)c(=O)n2C	-0.55	1.5
COc1ccc(C(=O)Nc2ccc(-c3nc4ccccc4o3)cc2)cc1OC	-0.6	23.3
COc1ccc2c(CC(=O)OCc3cc(=O)oc4cc(OC)ccc34)coc2c1	-0.7	/
Cc1cccc(Oc2coc3cc(OC(=O)c4cccs4)ccc3c2=O)c1	0.15	6.03
CCOC(=O)C1=C(C)N(Cc2ccccc2Cl)c2ccccc2S1	/	-0.595
COc1cc(/C=C2/C(=O)NC(=O)N(c3ccc(F)cc3)C2=O)cc(Br)c1OC	/	-0.35
CCCCC(=O)O/N=C1\C(=O)N(Cc2ccc(C)cc2)c2ccccc21	/	0.7
CC(C(=O)N1c2ccccc2CCc2ccccc21)n1nnc(-c2ccc(N(C)C)cc2)n1 (centres undefined)	1.3	/
O=C1/C(=C/c2ccc([N+](=O)[O-])cc2)C=C(c2ccccc2)N1c1ccc(Cl)c(Cl)c1	/	0.04
Cc1ccc(N(C(=O)c2ccc(Cl)cc2)C2C=CS(=O)(=O)C2)cc1 (centres undefined)	-0.05	0.285
CC(=O)Nc1nc(C)cc2c1c(=O)oc1ccccc12	-0.65	-0.13
Nc1nonc1-c1noc(COc2c(F)c(F)cc(F)c2F)n1	0.2	-0.41
CN(Cc1nnc(-c2ccccc2)o1)C(=O)Nc1ccc(F)cc1	-0.95	-0.205
Cc1nc2cc(-c3ccccc3)nn2c(C)c1CCC(=O)Nc1ccc2c(c1)OCO2	-0.05	8.69
COc1cc(C2Nc3ccc4ccccc4c3C3=C2C(=O)CC(C)(C)C3)cc(Br)c1O (centres undefined)	/	69.5
CC1CC(=O)N(c2ccccc2OC(F)(F)F)C1=O (centres undefined)	-0.2	-0.06
COC(=O)C1C(c2c(C)cc(C)cc2C)C(C(=O)OC)S(=O)(=O)CS1(=O)=O (centres undefined)	/	0.63
CC(C)C(=O)N1c2ncnn2C(c2ccccc2)CC1c1ccccc1 (centres undefined)	-0.25	/
COc1cccc(-c2nn(C)c3sc(C(=O)N4CCCCCC4)cc23)c1	-0.1	1.39
CC(=O)Nc1ccc(S(=O)(=O)NC2=NCN(C)CN2)cc1	2.2	-0.63

Gathered by group: those above containing fluorine.
SMILES	AID504770	Ba CapD inh
Cc1cc(-n2c(=S)sc3c(=O)n(-c4ccccc4F)c(=S)[nH]c32)ccc1Cl	/	-1.52
O=C(Nc1ccc(OC(F)(F)F)cc1)c1cccn(Cc2ccccc2)c1=O	/	-0.985
O=C(NC1CCCC1)c1c(F)c(F)c(F)c(F)c1F	1.5	0.005
CC(C(=O)N1CCN(Cc2ccccc2)CC1)N1CCN(S(=O)(=O)c2cccc(F)c2)CC1 (centres undefined)	-0.5	/
NS(=O)(=O)c1ccc(F)cc1Cl	/	-1.46
O=c1[nH]nc(SCCS(=O)(=O)c2ccc(F)cc2)n1-c1ccccc1	-0.35	0.425
COc1ccc(-c2csc(=Nc3ccccc3)n2CCc2ccccc2)cc1F	/	-0.275
COc1cc(/C=C2/C(=O)NC(=O)N(c3ccc(F)cc3)C2=O)cc(Br)c1OC	/	-0.35
Nc1nonc1-c1noc(COc2c(F)c(F)cc(F)c2F)n1	0.2	-0.41
CN(Cc1nnc(-c2ccccc2)o1)C(=O)Nc1ccc(F)cc1	-0.95	-0.205
CC1CC(=O)N(c2ccccc2OC(F)(F)F)C1=O (centres undefined)	-0.2	-0.06

The list goes on.
SMILES	AID504770	Ba CapD inh
CC1=NN(c2ccc(C(=O)OC(C)C)cc2)C(=O)/C1=C\c1cccn1-c1ccc(S(N)(=O)=O)cc1	/	-0.635
O=C(/C=C1\Sc2ccccc2NC1=O)NC1CCCCC1	1.4	0.58
CCNc1nc(Cl)nc(NCC)n1	-0.1	0.67
Cc1ccc2c(cnn2C(=O)CCCC(=O)N2CCc3ccccc32)c1	0.55	0.005
CC(=O)N1CCC(N(C(=O)c2ccc(C(F)(F)F)cc2)c2ccc3c(c2)CCN3C(C)=O)CC1	/	-0.2
CCNC(=O)Nc1ccc2nc(C)n(Cc3cccc(Cl)c3)c(=O)c2c1	1.8	/
CCOc1cc(C2C3=C(CC(C)(C)CC3=O)NC3=C2C(=O)c2ccccc23)ccc1O (centres undefined)	/	-0.6
CCOc1cc(C2C(C#N)=C(N)Oc3n[nH]c(-c4ccc(OC)cc4)c32)ccc1OC(=O)N1CCOCC1 (centres undefined)	/	-0.35
CCOC(=O)N(c1ccccc1)P1(=S)OCC(C)(C)CO1	/	-0.38
O=C(COC(=O)c1cccc(N2C(=O)c3ccccc3C2=O)c1)NCc1ccco1	0.3	/
Cc1nonc1NC(=O)OC(C)C	-0.65	-0.065
CC(C(=O)NC1CC1)N(c1cccc(Cl)c1)S(C)(=O)=O (centres undefined)	-1.35	0.165

Bioassay records from PubChem.
